Screening results as filed in PubChem BioAssay.
AID504770: growth inhibition of E. coli YBA685, primary screen, V. cholerae RctB inhibitors; E. coli YBA685 rctB-dependent plasmid, OD600 growth, 3 h; hits give low values; z-score (no concentration beside the values); hit rate 0.27% among 130,000; AID 504770, 2011;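 active means z-score under -2 on both plates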;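 further: wells of about 30 µL received 100 nL stock; score is relative to mean and SD of the test wells; the first replicate is given; strong numbers were not always called active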
CapD inh: Bacillus anthracis CapD inhibitors, primary screen, biochemical, fluorescence intensity. z-score (test concentration not listed). hit rate 0.23% among 140,000. purified CapD enzyme, fluorescence intensity read-out; hits give low values; some hits fall short of the stated cut. CapD gamma-glutamyltranspeptidase (Bacillus anthracis Ames Ancestor);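 active means z-score under -4 in either of two replicates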;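 further: stock transfer was 100 nL into about 40 µL; score is relative to mean and spread of the plate; one replicate is shown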
* marks the source's active call; other numbers are inactive results; . = no result given; & = joins results of further samples.

SMILES	AID504770	CapD inh
Cn1c(=O)cc(OCC(=O)NCCC2=CCCCC2)c2ccccc21	-0.5	0.87
CC1=C(C(=O)Nc2ccc(C)cc2C)C2(CCN(S(C)(=O)=O)CC2)OC1=O	0.15	0.79
CCOc1ccc(NC(=O)CN(C)C(C)c2nnc(-c3cccs3)o2)cc1OCC (centres undefined)	-0.1	.
N#CC1(C#N)C(c2ccccc2Cl)C(C(=O)C2CC2)N2C=CC=CC21 (centres undefined)	1.35	.
CC(C)(C)c1cc(-n2nc3ccccc3n2)c(O)c(C(C)(C)C)c1	1.45	0.14
O=C(c1ccccc1O)N1CCN(c2ccccc2)CC1	-0.35	-0.21
O=C(O/N=C/c1cc2ccccc2nc1SCc1ccc(Cl)cc1)C1CC1	.	0.6
Cc1csc(/N=C/N(C)C)n1	0.1	.

Further compounds follow.
SMILES	AID504770	CapD inh
COC(=O)c1sc2ccccc2c1NC(=O)c1ccc(N2C(=O)CCC2=O)cc1	-0.65	-0.38
Cc1c(C)c2c(c(C)c1O)CCC(C)(CCCC(C)CCCC(C)CCCC(C)C)O2 (centres undefined)	0.45	-1.49
CCc1ccccc1NS(=O)(=O)c1ccc2c(c1)CC(C)N2C(=O)C1CC1 (centres undefined)	1.95	-1.17
CC(C)(C)OC(=O)C(C)(C)S(=O)(=O)c1ccccn1	.	-0.58
COc1ccc(-n2cnc3cc(C(=O)NCC4CCCO4)ccc32)cc1 (centres undefined)	2.45	-0.36
Cc1nnc(Nc2ccc(OCC(N)=O)cc2)c2ccccc12	.	-0.685
O=C(O)C1C2CCC(C2)C1C(=O)c1ccccc1 (centres undefined)	-0.25	0.14
NC(=O)c1cc2cc(Br)cc(Br)c2oc1=O	-0.8	-0.815

Remaining list, next part.
SMILES	AID504770	CapD inh
COCCn1c(SCC(N)=O)nc2sc3c(c2c1=O)CCCC3	0.35	.
CCn1c2ccccc2c2cc(CNCCO)ccc21	-0.6	.
COc1cc(-c2nnc(SCC(=O)c3ccco3)n2C)cc(OC)c1OC	1.9	0.045
O=C(OCN1C(=O)c2ccccc2C1=O)c1cccc(OC(F)F)c1	0.1	.
O=C(NC1CCCC1)C(c1ccncc1)N(Cc1cccs1)C(=O)c1csnn1 (centres undefined)	-0.8	0.415
CC1C(=O)CCNC1c1ccccc1 (centres undefined)	-0.8	.
COc1cc(C2NC(C(=O)O)Cc3c2[nH]c2ccccc32)cc(OC)c1OC (centres undefined)	.	1.11
CCCCn1c(=NC(=O)C(C)(C)C)c(C(=O)OCC)cc2c(=O)n3ccccc3nc21	.	0.475

(further entries)
SMILES	AID504770	CapD inh
COc1ccc(/C=C2/CC(C)C/C(=C\c3ccc(OC)c(OC)c3)C2=O)cc1OC (centres undefined)	.	-0.08
CC(C)Cn1cnc2c1c(=O)n(CC(=O)NCC(F)(F)F)c(=O)n2Cc1ccccc1	0.6	.
O=C(Nc1ccccc1)Nc1ccc2nnsc2c1	-1.5	-0.72
CN(C(=O)C(C)(C)C)C1CC2C=CC1C2 (centres undefined)	0.85	-0.43
CCCNC(=O)C1CCC(CNS(=O)(=O)c2cccc3nsnc23)CC1 (centres undefined)	0.9	-0.02
O=C1CCC(C(=O)OCc2ccc(Br)cc2)=NN1	-0.15	.
CC(=O)Nc1cc2c(C)cc(=O)oc2c2c1O/C(=C\c1ccc(Cl)cc1)C2=O	.	-0.29
CCOc1cc(C)c(Cl)cc1S(=O)(=O)N1CCN(C)CC1	-0.1	-0.93

Next results.
SMILES	AID504770	CapD inh
Cc1cc(C)nc(N/N=C/c2c(O)n(C)c(=O)n(C)c2=O)n1	-0.4	.
O=C(Cn1nc(Cc2cccnc2)c2ccccc2c1=O)NCCc1ccc(Cl)cc1	2.45	-1.25
O=C(O)c1ccc2nc(-c3ccccc3)sc2c1	0.6	9.14
N#CCCN(CC1CCCO1)S(=O)(=O)c1ccc(Br)cc1 (centres undefined)	.	0.695&0.71
Cc1cc(C)nc(NS(=O)(=O)c2ccc(N=c3ssc4c3-c3ccccc3NC4(C)C)cc2)n1	.	-1.04
CCOC(=O)C1=CN(Cc2ccc(Cl)cc2)C=C(C(=O)OCC)C1c1cc2c(cc1Br)OCO2	.	23.6
CC(Oc1ccccc1)C(=O)Nc1ccc(-c2nnc(-c3ccccc3)o2)cc1 (centres undefined)	-0.85	74.8
CC(C)(C)S(=O)(=O)/C(C#N)=C/c1ccc(F)cc1F	.	-0.865

(further entries)
SMILES	AID504770	CapD inh
Cc1ccc(-c2c3c(nc4sc(C(N)=O)c(N)c24)CCCC3)o1	0	-0.11
COC(=O)c1cc2sc(Cl)cc2n1Cc1nc(-c2ccc(OC)c(OC)c2)oc1C	-0.25	0.135
CCOC(=O)/C(C#N)=C1\CCCCCN1	0.1	0.665
CCCN1CCCc2cc(CN)ccc21	-0.5	.
CCC1Sc2ccc(S(=O)(=O)CCC(=O)N3CCCc4ccccc43)cc2NC1=O (centres undefined)	-0.6	-0.205
O=C(OCCN1CCN(c2ccc([N+](=O)[O-])cc2)CC1)c1cccc(Cl)c1	.	-0.245
CC1(C)C(c2ccco2)=[N+]([O-])C(C)(C)N1O	0.3	-0.525
Cn1nc(-c2ccccc2F)c2cc(C(=O)Nc3ccc(S(N)(=O)=O)cc3)sc21	0.55	22.1

The results go on:
SMILES	AID504770	CapD inh
Oc1ccc(/C=C2/NC(=S)Nc3nc(Nc4ccccc4)sc32)cc1	-0.55	-0.33
O=C1NC(=S)N/C1=C/c1ccc(-c2c(Br)cc([N+](=O)[O-])cc2Br)o1	.	-0.605
FC(F)(F)c1ccc(-c2nc(-c3ccccn3)ncc2-c2cnccn2)cc1	.	-0.195
C=CCn1c2ccc(Br)cc2c2nc3ccccc3nc21	0.15	4.16
Cc1noc(C)c1COc1ccc(C(=O)Nc2ccc(F)c(Cl)c2)cc1	-1	.
COC(=O)/C=C/c1ccc(OC(=O)c2ccncc2)cc1	-0.2	.
O=P(CCN1CCOCC1)(c1ccccc1)c1ccccc1	-1.1	0.14
COc1ccc(-c2[nH]nc(SC)c2C#N)cc1	0.65	1.13

The list goes on.
SMILES	AID504770	CapD inh
CCOC(=O)N1CCC(NC(=O)c2cc3c(-c4ccccc4F)nn(C)c3s2)CC1	-1.2	-0.075
O=C(CSc1ccccc1Cl)NC1CCCCCC1	-1.6	0.34
Nc1ccc2oc(-c3ccc(-c4nc5cc(N)ccc5o4)cc3)nc2c1	0.3	-0.125
CCN(CC)CCCNc1cc(C)c2ccc(OC)cc2n1	2.3	.
O=C(NCCN=C1NS(=O)(=O)c2ccccc21)c1ccc(F)cc1	-0.45	0.645
CCOC(=O)c1oc2ccc(S(=O)(=O)Nc3cc4c(cc3C)n(C)c(=O)c(=O)n4C)cc2c1C	0.85	0.91
COc1ccc(-c2noc(CCC(=O)Nc3ccc4c(c3)OCCO4)n2)cc1	-0.3	0.345
COc1cc(/C=N/NC(=O)c2ccncc2)ccc1OC(=O)OC(C)(C)C	.	0.46

Three compounds drawn at random from the list so far:
SMILES	AID504770	CapD inh
O=C(CSc1ccccc1Cl)NC1CCCCCC1	-1.6	0.34
CCOC(=O)c1oc2ccc(S(=O)(=O)Nc3cc4c(cc3C)n(C)c(=O)c(=O)n4C)cc2c1C	0.85	0.91
CCN(CC)CCCNc1cc(C)c2ccc(OC)cc2n1	2.3	.

Next section:
SMILES	AID504770	CapD inh
COc1ccc(Nc2cc3sc4cc(C)ccc4[nH]c3c3c(=O)c4ccccc4c(=O)c23)cc1	.	0.33
COc1ccc(OCCn2cc(C#N)c3ccccc32)cc1	1.9	1.79
CCc1ccc(NC(=O)Cn2cnc3c(cnn3C)c2=O)cc1	-0.7	-0.205
CCOC(=O)N1CCN(C(=O)c2sc3ncn(CC(=O)Nc4ccccc4OC)c(=O)c3c2C)CC1	.	0.35
O=C(NCCc1ccccc1)C1CC(=O)N(CCc2ccccc2)C1 (centres undefined)	-0.5	-0.665
Cc1cccc(NC(=O)/C=N/OC(=O)Nc2ccccc2)c1	0.55	-0.155
Cc1c(N(CC(=O)N/N=C/c2ccc3c(c2)OCO3)S(=O)(=O)c2ccccc2)c(=O)n(-c2ccccc2)n1C	.	0.06
Cc1cc(C)nc(NNC(=O)NC2CCCCC2)n1	1.1	.

Continuation.
SMILES	AID504770	CapD inh
CCOC(=O)CC1=CSC(NC)N1c1c(C)cc(C)cc1C (centres undefined)	1.85	.
CCC(=O)N1c2ccccc2NC2=C(C(=O)CC(c3cc(OC)c(OC)c(OC)c3)C2)C1c1ccc(OC)c(OC)c1 (centres undefined)	.	2.9
Cc1nc2c3c(-c4ccccc4)nc(N4CCCCC4)nc3nn2c(C)c1CCC(=O)O	0.95	0.305
Cc1cccn2c(=O)c(/C=C3\SC(=S)N(C(C)C)C3=O)c(N(C)Cc3ccccc3)nc12	.	0.355
Cc1c(Cl)ccc2c(=O)c(C(=O)O)c[nH]c12	-1.6	0.37
Cc1ccc(/C=N/n2cnc3sc4c(c3c2=O)CCCC4)o1	0	0.595
Cc1ccc(CNC(=O)CSc2nc(NC3CCCCC3)c3ccccc3n2)cc1	0.3	0.185
Cn1c(=O)c2c(-c3ccccc3)n(C3CCCCC3)cc2n(C)c1=O	-0.4	4.44

Continued:
SMILES	AID504770	CapD inh
CCOC(=O)N1CCC(Nc2nc(Nc3ccccc3)nc(OC)n2)CC1	-1.95	5.21
CC(C)C(=O)Nc1nc(NC(=O)C(C)C)nc(-c2ccccc2C(F)(F)F)n1	-0.75	0.325
O=C(O)CCC(=O)OC[C@@H](NC(=O)C(Cl)Cl)[C@H](O)c1ccc([N+](=O)[O-])cc1	-1.25	0.17
Clc1ccc(C2Nc3ccccc3O2)cc1 (centres undefined)	-1.35	-1.27
COC(=O)c1c(NC(=O)CSc2nnc3sc4ccccc4n23)sc(Cl)c1-c1ccccc1	.	-0.145
COc1ccc(C(=O)N2CCN(S(=O)(=O)c3ccc(S(C)(=O)=O)cc3)CC2)cc1F	.	0.295
O=C(CSc1ncnc2sccc12)Nc1ccccc1	-0.8	.
COc1cc(/C=C2/N=C(c3ccco3)OC2=O)ccc1OC(C)=O	1.65	0.685

(continued)
SMILES	AID504770	CapD inh
COC(CNC(=O)C1CCC(CNS(=O)(=O)c2ccc(C)cc2)CC1)OC (centres undefined)	-0.8	0.31
Cc1ccc(NC(=O)C(Cc2c[nH]c3ccccc23)NC(=O)Oc2ccccc2)cc1 (centres undefined)	.	-0.565
CC(C(=O)N1CCc2ccccc2C1)n1ncc2ccccc21 (centres undefined)	0.5	-0.195
O=C(Oc1ccc(-c2csnn2)cc1)c1cccnc1	0.3	0.455
O=C(Cn1ncc2c(Cl)cccc21)NCCCN1CCCC1	0.2	-0.045
O=C(NCc1ccco1)C1CCCN1S(=O)(=O)c1ccc(-c2ccc(=O)[nH]n2)s1 (centres undefined)	0.85	6.7
O=C(Cc1cccs1)Nc1scc(-c2ccccc2)c1C(=O)NCc1ccco1	-0.05	0.045
Cn1nnc2sc(-c3ccccc3)cc2c1=O	-0.5	6.88

(next part)
SMILES	AID504770	CapD inh
c1coc(C2Nc3ccccc3-c3nc4ccccc4n32)c1 (centres undefined)	0	1.46
O=C1CCC(=O)N1CN(C(=O)C(F)(F)F)c1ccccc1	-1.15	-0.125
CC(c1nnc(SCc2nnc(-c3ccco3)o2)n1-c1ccc(F)cc1)N1CCCCC1 (centres undefined)	0.85	.
Cc1cc(C)c(OCC(=O)O)c(Cl)c1	0.7	.
CSc1nc2c(sc3ccccc32)c(=O)n1CCCC(=O)NCC1CCCO1 (centres undefined)	-0.6	1.95
CCN1/C(=c2/s/c(=C3/C(=O)N(c4ccc(Cl)cc4)N=C3C)n(CC)c2=O)C=Cc2ccccc21	.	-0.115
COc1cc(/C=c2/sc3nc4c(C)cc(C)cc4n3c2=O)cc(Br)c1O	.	-1.23
CCN(CC)C(=O)c1sc2nc(-c3ccncc3)[nH]c(=O)c2c1C	0.45	.

Additional structures
SMILES	AID504770	CapD inh
CNC(=S)N1c2ccccc2CC1C (centres undefined)	-0.55	.
CCN(CC)CCSc1nc(O)c(-c2ccccc2)c(=O)[nH]1	0.3	1.04
COc1cc(Nc2nc(SCC(=O)c3ccc(O)c(O)c3)nc3ccccc23)cc(OC)c1	0.5	0.045
COc1ccc(/C=N/NC(=O)c2cc3c(=O)n(C)c(=O)n(C)c3nc2C)cc1	-0.35	0.195
CC1CCC(C(C)C)C(OCC(O)CN2CC(C)OC(C)C2)C1 (centres undefined)	0	-0.385
CN(C)Cc1ccc(O)c(CN(C)C)n1	0	-0.005

One compound at a time, from the list above. Values in the order: AID504770	CapD inh
`CCN(CC)CCSc1nc(O)c(-c2ccccc2)c(=O)[nH]1` reads 0.3	1.04
`CC1CCC(C(C)C)C(OCC(O)CN2CC(C)OC(C)C2)C1` (centres undefined) reads 0	-0.385
`COc1cc(Nc2nc(SCC(=O)c3ccc(O)c(O)c3)nc3ccccc23)cc(OC)c1` reads 0.5	0.045
`CNC(=S)N1c2ccccc2CC1C` (centres undefined) reads -0.55	.

Some of the compounds tested, so the mix of outcomes need not match the whole.
